TRPML1 blocker: blocks the human TRPML1 channel; TRPML1-inducible cells, Ca2+ dye fluorescence, FDSS; stronger effect = lower value; inhibition of EC80 agonist-evoked calcium signal; activity change, negative = inhibition, % (concentration not given with the values); hit rate 0.02% among 390,000; AID 624415; in the data active means activity change below about -50%; inconclusive means about -30% to -50%; inactive means above about -30%;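 further: stimulus is agonist 54-4 at its EC80 concentration; on the % scale 0 is the no-effect control and ±100 the full control effect; compound concentration not given in the record; the text of the record puts the active cut at -80%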
Target sequence (Q9GZU1 whole entry, looked up): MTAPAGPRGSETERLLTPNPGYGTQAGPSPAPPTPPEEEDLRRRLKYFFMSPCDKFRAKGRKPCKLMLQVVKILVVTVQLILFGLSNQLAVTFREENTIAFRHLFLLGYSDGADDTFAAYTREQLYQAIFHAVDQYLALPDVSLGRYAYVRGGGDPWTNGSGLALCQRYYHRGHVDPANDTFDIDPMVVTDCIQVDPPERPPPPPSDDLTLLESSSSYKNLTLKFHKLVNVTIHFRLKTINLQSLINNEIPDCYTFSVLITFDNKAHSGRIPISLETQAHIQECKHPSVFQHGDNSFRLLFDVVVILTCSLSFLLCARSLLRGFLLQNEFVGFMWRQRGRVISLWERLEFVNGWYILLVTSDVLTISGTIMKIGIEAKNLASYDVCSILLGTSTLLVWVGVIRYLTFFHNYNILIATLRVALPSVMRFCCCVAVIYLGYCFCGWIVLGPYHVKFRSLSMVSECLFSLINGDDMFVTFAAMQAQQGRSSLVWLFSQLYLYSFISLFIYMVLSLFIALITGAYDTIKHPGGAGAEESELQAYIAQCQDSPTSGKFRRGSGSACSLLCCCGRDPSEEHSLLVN
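Tet-induced TRPML1-DL cells loaded with Ca8 no-wash calcium dye were read kinetically on FDSS. Compound addition was followed by EC80 agonist 54-4 (4 uM final); inhibition was read over 110 s.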
Menin-MLL FL inh: menin-MLL binding inhibition, fluorescein peptide; Fluorescence polarization, fluorescein-MLL peptide displacement from menin; FP activity change, % at 61.4 µM; 290,000 tested, under 10 active; AID 1766; inconclusive = falling polarisation curve, or a change in total fluorescence; inactive = total fluorescence flat and polarisation flat or rising; no compound was filed as active; the % refers to the polarisation; negative = inhibition;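 further: % of control where 0% means no effect; inhibitors lower the polarisation; unlabelled MLL peptide was the positive control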
gsp agonist: agonists of gsp mutant (McCune-Albright syndrome) | gsp mutant cells, cAMP HTRF, 30 min; control for the full effect not named in the record | Potency, µM (top dose mostly 76.9 µM), for the others: top-dose activation (cAMP increase), actives largely listed as activators | hit rate 0.13% among 340,000 | AID 624287; active = well fitted activation curve with a large enough effect; inconclusive = small, poorly fitted or top-dose-only effect, or another doubt; inactive = no such curve, though single readings can be large or run the other way; cell line not stated here;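 further: phosphodiesterase inhibitor Ro 20-1724 added with compounds to block cAMP breakdown; potency means the concentration at half of the fitted maximal effect; nearly all actives have a fitted effect of over 60% in size; about a fifth of the inactives were tested at one dose only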
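Cells stably selected in G418 were plated at 2000/well, grown 16-24 hr, then given compounds in DMSO with the PDE inhibitor […] (300 uM solution added) for 30 min at 37C; cAMP was read by HTRF.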
TRPML1 agonist: activates the human TRPML1 channel; activation, % (no concentration beside the values); TRPML1-expressing cells, Ca2+ dye fluorescence, FDSS; host cell line not named in the record; reference of the full effect not given here; AID 624414; hit rate 0.12% among 410,000; in the data active = activation above about 50%; inconclusive = about 30% to 50%; inactive = below about 30%; further: 0% is about no effect; the text of the record puts the active cut at 80%
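In this qHTS format, compounds were pin-transferred onto Ca8-dye-loaded TRPML1-DL cells induced with Tet overnight, and intracellular Ca2+ fluorescence was recorded kinetically for 110 s after a 10 s baseline. A subsequent 4uM final 54-4 (EC80) addition followed by a second 110 s read served as the antagonist phase.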
gsp antagonist: gsp mutant antagonism. hit rate 0.4% among 340,000. Potency, µM (top dose mostly 76.9 µM), for the others: at the top dose activity change, negative = inhibition, most hits filed as inhibitors. AID 624288. gsp-mutant cells, cAMP HTRF, 30 min; control for the full effect not named in the record; active = falling curve of any shape with a large fitted effect; inconclusive = falling curve, mostly with a smaller effect; inactive = flat or rising curve; cell line not stated here;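 further: intracellular cAMP measured with PDE inhibitor Ro 20-1724 present during compound exposure; potency means the concentration at half of the fitted maximal effect; on the % scale 0 is the no-effect control and ±100 the full control effect; nearly all actives have a fitted effect of over 65% in size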
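Cells in G418 medium, seeded 16-24 h, 37C; buffer exchange to DPBS + 1 mM CaCl2, 0.5 mM MgCl2, 0.05% BSA; cpds in DMSO + […] (300 uM stock), 30 min 37C; HTRF cAMP detection.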
ClpP mod: qHTS Assay for Activators of ClpP; Potency, µM (series often up to 57.5 µM), without a hit: at the top dose activity change, negative = active; AID 651965, 2013; purified B. subtilis ClpP, FRET peptide cleavage, 20 min; hit rate 1.9% among 340,000; ATP-dependent Clp protease proteolytic subunit (Bacillus subtilis (strain 168)), P80244; active = well fitted falling curve with a large enough effect; inconclusive = small, poorly fitted or top-dose-only effect; inactive = no such curve, though single readings can be large or run the other way; further: potency means the concentration at half of the fitted maximal effect; the source files actives as falling curves though it sought activators and does not explain the sign; nearly all actives have a fitted effect of over 65% in size; many hits overshoot -100%
Target sequence (P80244 whole entry, looked up): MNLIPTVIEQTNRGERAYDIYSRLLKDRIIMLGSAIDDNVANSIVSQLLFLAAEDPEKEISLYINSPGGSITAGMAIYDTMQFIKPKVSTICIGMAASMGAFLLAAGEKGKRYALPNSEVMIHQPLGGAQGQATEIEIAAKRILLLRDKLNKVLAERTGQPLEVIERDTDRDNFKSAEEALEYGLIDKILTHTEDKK
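Buffer: 100 mM Tris/HCl pH8, 100 mM KCl, 0.05% low protease BSA, 2.5% glycerol, 0.01% Tween-20. ClpP 10 microg/mL final; 20 min RT; delta FRET normalized to ADEP and DMSO controls.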
* marks the source's active call; other numbers are inactive results; ? = inconclusive; nt = no result given; & = joins results of further samples; [ ] = dose if it differs, or a comment. Outcome played no part in choosing rows; 2.1% or so of the library scored in one or more.

SMILES	TRPML1 blocker	Menin-MLL FL inh	gsp agonist	TRPML1 agonist	gsp antagonist	ClpP mod
COc1cc(OC)c2c(c1)C(=O)c1cc(OC)cc(OC)c1C2=O	12	-0.5	10%	0.4	-2%	0.0%
CC(=O)Nc1ccc(Oc2nc(-c3cccnc3)nc3sc4c(c23)CCCC4)cc1	-14	nt	-1%[15.4 µM]	0.7	12%	nt
CCc1nnc(NS(=O)(=O)c2ccc(N3C(=O)c4ccc(C(=O)O)cc4C3=O)cc2)s1	-18	-0.7	1%[15.4 µM]	1.2	9%	nt
CC(C)CN(C(=O)COC(=O)CNC(=O)c1ccccc1)c1c(N)n(Cc2ccccc2)c(=O)[nH]c1=O	2	nt	0%	0.4	14%	1.9%
COC(=O)Cn1ncn2c(cc3oc(C)cc32)c1=O	21	5.5	28%	-0.3	-7%	-0.8%
COc1cc(/C=N/NC(=O)c2cccs2)ccc1OCc1ccccc1	-1	6.7	27%	-0.1	10%	-1.3%
COC(=O)C1=NN(c2cccc3ccccc23)C2C(=O)N(c3ccccc3OC)C(=O)C12 (configuration not stated)	-12	-2.9	-10%[15.4 µM]	-0.6	11%	-0.9%
CCC(Sc1nc2ccncc2[nH]1)C(=O)Nc1cc(Cl)ccc1C (configuration not stated)	3&16	-4.1	-21%	0.4&1.2	-18%	1.4%&1.8%
COc1ccc(CNC(=O)c2ccc(NS(=O)(=O)c3ccc4[nH]c(=O)[nH]c4c3)cc2)cc1OC	0	nt	3%	-0.6	6%	-0.2%
COc1cccc(NC(=O)c2sc3nc(N4CCOCC4)c4c(c3c2N)CC(C)(C)OC4)c1	14	nt	nt	0.2	nt	-41%
CN(Cc1ccc(Cl)cc1)C(=O)c1ccc2ccccc2n1	-7	-1.5	3%	0.9	-5%	nt
O=C(NC(=S)Nc1ccc2cn[nH]c2c1)c1ccccc1	8	-2.4	16%[15.4 µM]	1.2	3%	nt
CCCOC(=O)c1[nH]c2c(c1C)C(=O)CC(c1ccc(OC)c(OC)c1)C2 (configuration not stated)	7	2.4	-9%	1.4	1%	-1.3%
COc1ccc(/C=N\NC(=O)c2ccccc2F)cc1COc1ccc(F)cc1	10	-0.3	?	0.8	0%	37%
Fc1ccccc1C(NCCc1ccc(Cl)cc1)c1nnc(-c2ccccc2)o1 (configuration not stated)	-26	nt	nt	2.4	nt	?

Next section, overlapping the part above by two compounds.
SMILES	TRPML1 blocker	Menin-MLL FL inh	gsp agonist	TRPML1 agonist	gsp antagonist	ClpP mod
COc1ccc(/C=N\NC(=O)c2ccccc2F)cc1COc1ccc(F)cc1	10	-0.3	?	0.8	0%	37%
Fc1ccccc1C(NCCc1ccc(Cl)cc1)c1nnc(-c2ccccc2)o1 (configuration not stated)	-26	nt	nt	2.4	nt	?
COc1ccc(S(=O)Cc2ccc(C(=O)NCc3cccc(OC)c3)o2)cc1 (configuration not stated)	-13	nt	?	-0.3	-3%	1.7%
Cc1ccc(S(=O)(=O)Nc2ccc3ccccc3c2[N+](=O)[O-])cc1	33	nt	-5%	1.2	-10%	nt
CCN(CC)S(=O)(=O)c1cc(NC(=S)NC(=O)C2CCCC2)ccc1C	-3	nt	-31%[inhibitor]	-0.6	-11%	-3.9%
COc1ccc(N(CC(=O)NCCSCc2cccc(Cl)c2)S(C)(=O)=O)cc1Cl	-16	1.1	-12%[15.4 µM]	-1.1	-14%	-2.1%
O=C(C[C@H]1C/C=C\C[C@H](NC(=O)OCC2c3ccccc3-c3ccccc32)C(=O)O[C@@H](c2ccccc2)CNC1=O)NCCO	-3	nt	nt	-0.8	-7%	-0.6%
CN(C)S(=O)(=O)c1ccc(Cl)c(NC(=O)COC(=O)CN2C(=O)C3CCCCC3C2=O)c1 (configuration not stated)	3	-0.1	-2%[15.4 µM]	0.1	-1%	-0.7%
Cc1nn(-c2ccccn2)c2c1-c1nc(N)ncc1CC2	-6	2.2	6%	-0.8	-18%	10µM*
COc1cc(NC(=O)C(CC(C)C)N2Cc3ccccc3C2=O)cc(OC)c1 (configuration not stated)	24	nt	nt	3.6	nt	-3.4%
O=C(NC(=S)NN1CCOCC1)c1cc(Br)ccc1Cl	-19	nt	-2%	-0.5	16%	-1.5%
Cc1ccc(C)c(NC(=S)N2CCCCC2CO)c1 (configuration not stated)	21	3.9	-51%[inhibitor]	3.2	-8%	1.8%
O=C(COC(=O)CCc1c[nH]c2ccccc12)NCc1ccc2c(c1)OCO2	5	1.5	2%[15.4 µM]	-2.0	-10%	-0.1%
Cc1cnc(C(=O)OCC(=O)NCc2ccccc2)cn1	-13	-0.7	?	0.4	18%	-0.7%
Cc1cc2nc(CN(C)C(=O)C3CCC(=O)N(C4CCCC4)C3)[nH]c2cc1C (configuration not stated)	2	nt	-17%	-0.4	nt	-1.8%
CCn1c(SCC(=O)N2CCOCC2)nnc1C(C)NC(=O)c1ccccc1 (configuration not stated)	37	0.9	29%	-0.4	14%	-1.4%
O=C(CCc1nc2ccccc2[nH]1)Nc1ccccc1F	1	-0.7	14%	0.1	3%	1.5%
COc1ccc(CNC(=O)C(=O)NCc2cccnc2)cc1	10	3.7	11%	-0.2	-1%	-0.9%
CN(Cc1ccccc1)S(=O)(=O)c1ccc(F)c(C(=O)Nc2cccc(Cl)c2Cl)c1	-14	nt	nt	-0.1	nt	4.0%
CCc1cccc(NC(=O)CSc2ncc3c(n2)-c2ccccc2N(CC)S3(=O)=O)c1	2	nt	nt	3.0	nt	-11%
N#C/C(=C/c1cn[nH]c1-c1ccc(Br)cc1)C(=O)O	43	1.5	24%[15.4 µM]	0.8	-4%	nt
Cc1ccc(NC(=O)c2ccccc2NC(=O)c2cccnc2)cc1	5	-1.3	-15%[15.4 µM]	0.2	1%	0.3%
Cc1ccc(NC(=O)CSCC(=O)N(C)CC(=O)Nc2cccc(F)c2)cc1	-4	nt	7%	-0.7	5%	-0.9%
CCCOc1ccc(/C=N/NC(=O)CSc2ccccn2)cc1OC	2	-1.3	-46%[inhibitor]	-0.6	-4%	nt
Cc1cc(C)nc(N(C#N)Cc2ccc(Br)cc2)n1	12	1.0	-2%	5.6	-11%	-0.4%
CCOC(=O)C1=C(C)N(C)C(=S)NC1c1ccccc1 (configuration not stated)	14	3.5	8%[15.4 µM]	-1.0	-4%	0.9%
Cc1ccoc1C(=O)N1CCCC(CO)(Cc2ccc(F)cc2)C1 (configuration not stated)	39	nt	15%[15.4 µM]	0.5	-9%	?
COc1cccc(C(=O)C(C#N)=C(SC)SC)c1	-26	0.0	-1%	2.8	-30%	0.2%
CCN(CC)S(=O)(=O)c1ccc(NC(=O)COc2c(OC)cccc2OC)cc1	21	3.2	-17%	0.9	-26%	0.5%
O=C(C=C1NCCN1)c1ccccc1	-10	nt	-114%[inhibitor]	1.6	2%	-1.7%
NS(=O)(=O)c1ccc(NC(=S)NC(=O)c2ccc(Br)o2)cc1	43	-1.9	13%[15.4 µM]	0.1	-6%	nt
O=C(CCCCCCN1C(=O)c2ccccc2C1=O)NC1CCCCC1	-5	3.3	24%	-0.9	4%	-0.4%
O=C(OCc1nc2ccccc2[nH]1)C1CCCCC1	12	0.4	-31%[inhibitor]	0.3	-6%	-1.7%
c1cncc(-c2nnc(-c3cccs3)o2)c1	-6	0.0	9%	1.4	12%	8.9µM*
CCCCNC(=O)C(=O)NCCCn1ccnc1	4	-2.3	18%[15.4 µM]	0.3	nt	nt
CC(C)C(C)NC(=O)COc1ncnc2sccc12 (configuration not stated)	1	1.7	-1%	0.3	8%	nt
CCOC(Cn1c(SCC(=O)Nc2cc(C)on2)nc2ccccc2c1=O)OCC	-12	-2.4	-19%	-1.2	11%	3.2%
CC1Cc2cc(S(=O)(=O)CCC(=O)Nc3ccc(F)cc3Cl)ccc2N1C(=O)C1CC1 (configuration not stated)	-1	nt	nt	-1.0	nt	-0.2%
CC1CN(C)C(C)c2c1oc1ccc([N+](=O)[O-])cc21 (configuration not stated)	-3	-0.3	-7%[15.4 µM]	1.1	nt	nt
Cc1cc(C)cc(SCc2noc(C(=O)NCCCN3CCOCC3)c2C(=O)NCCCN2CCOCC2)c1	-16	-0.4	-27%	0.2	6%	-1.0%
O=[N+]([O-])c1ccccc1CN1CCN(c2ncccn2)CC1	3	-3.4	-29%	-0.6	-2%	nt
COc1ccc(OC)c(CNC(=O)CCc2nc(-c3cccs3)no2)c1	28	6.6	?	-1.0	4%	-0.7%
O=C(N/N=C\c1cc([N+](=O)[O-])ccc1N1CCCC1)c1ccccn1	1	1.4	7%	2.3	-14%	1.0%
CC(C)CC(=O)Nc1nc2c(s1)CC(C(C)(C)C)CC2 (configuration not stated)	-12	nt	nt	-0.1	nt	0.7%
COc1ccc(NC(=O)c2cc(S(=O)(=O)N(Cc3ccccc3)c3ccccc3)ccc2Cl)cn1	13	5.1	6%[15.4 µM]	0.8	-14%	-1.0%
CCN(CC)CCNC(=O)Cn1cnc2sc(C)c(S(=O)(=O)N3CCN(c4ccccc4OC)CC3)c2c1=O	14&-14	-1.1	-34%[inhibitor]	-0.2&-0.2	8%	-0.8%
CCOC(=O)c1cc(S(=O)(=O)Nc2ccc(OC)c(Cl)c2)[nH]n1	-14	nt	nt	0.1	nt	-0.2%

Pulled by structure from the list above (2):
SMILES	TRPML1 blocker	Menin-MLL FL inh	gsp agonist	TRPML1 agonist	gsp antagonist	ClpP mod
O=C(NC(=S)NN1CCOCC1)c1cc(Br)ccc1Cl	-19	nt	-2%	-0.5	16%	-1.5%
COc1ccc(NC(=O)c2cc(S(=O)(=O)N(Cc3ccccc3)c3ccccc3)ccc2Cl)cn1	13	5.1	6%[15.4 µM]	0.8	-14%	-1.0%

New compounds follow
SMILES	TRPML1 blocker	Menin-MLL FL inh	gsp agonist	TRPML1 agonist	gsp antagonist	ClpP mod
Cc1nn(C)c(Oc2cccc(C(F)(F)F)c2)c1C=O	20	-3.1	-13%[15.4 µM]	-0.3	6%	nt
COc1cc(OC)c(NC(=O)NCc2ccc3c(c2)CCN3C(=O)c2ccccc2)cc1Cl	-2	nt	nt	0.3	nt	2.0%
O=C(NCCCN1CCN(c2ccccc2F)CC1)c1sc2ncccc2c1-n1cccc1	23	nt	nt	-0.1	nt	-5.2%
O=C(CCNS(=O)(=O)c1ccc(Br)s1)N1CCCCC1	-5	-1.7	19%	0.9	4%	-1.6%
CCCCNC(=O)Cn1nc(N2CCN(c3ccccc3OC)CC2)ccc1=O	26	nt	nt	1.9	nt	-0.7%
COc1cccc(OCC(O)CN2CCN(c3ncccn3)CC2)c1 (configuration not stated)	8	0.5	-21%	0.2	9%	2.2%
CC(c1ccccc1)C1C(C#N)=C(N)SC(N)=C1C#N (configuration not stated)	82	-1.6	-38%[inhibitor]	-0.1	0%	3.4%
O=C(Nc1ccc(N2C(=O)CCC2=O)cc1Cl)c1cccs1	-5	-2.1	9%[15.4 µM]	-0.2	nt	nt

Assay outcomes as filed in PubChem.
